Mtb hypoxia inh – PubChem AID 1159583 | M. tuberculosis hypoxia-regulated fluorescent reporter, fluorescence | fluorescence inhibition, % (concentration not given with the values) | 0.1% of 300,000 active;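 active = 35 to 45% if threefold the growth effect, above 45% if 1.5-fold the growth effect; inactive = the rest, general growth blockers included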;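 also: wells of about 50 µL received 100 nL stock; 0% = vehicle wells and 100% = reference inhibitor wells; whole bacteria with a GFP reporter of the hypoxia response; strong numbers were not always called active; many hits fall short of the cut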
Bead autofluor – flagged as autofluorescent in microsphere protease counterscreen. fluorescence intensity (test concentration not listed). compound autofluorescence counterscreen, microsphere flow cytometry; stronger effect = higher value. 3.1% of 360,000 active;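 active = at least 3 SD above the mean of all compounds, about 16000 in these data; inconclusive = too few beads counted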;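 also: 100 nL of 1 mM stock went into each well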
RN4220 kill – growth inhibition of S. aureus RN4220, primary screen, OD600. 16 h. inhibition, % (no concentration beside the values). 0.33% of 330,000 active. AID 1259311, 2017;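 active = z-score of -3 or lower and OD600 up to 0.18 on both plates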;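 also: plate controls were untreated cells for no effect and reference antibiotic for full effect; stock transfer was 100 nL into about 80 µL; one replicate is shown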
BJeLR lethal – MLPCN primary cell-based screen for lethality selective to Ras in HRASV12 cells. BJeLR (HRASV12) viability, CellTiter-Glo ATP luminescence, 48 h; reference of the scale not given here. inhibition, % (test concentration not listed). 0.17% of 300,000 active;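 active = replicate mean above 50%; inconclusive = above 50% but judged a plate artefact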;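 also: 50 nL library stock added to about 25 µL; numbers are from one replicate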
PrP 5UTR inh – inhibition of PrP 5' UTR reporter expression; cell-based PrP 5' UTR mRNA reporter, plate reader; inhibition, % (no concentration beside the values); AID 488862, 2010; 0.35% of 340,000 active;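 active = every replicate at 50% or more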;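 also: 0 = median of the neutral control wells; tested in H4 reporter cells; numbers are from one replicate; inactives centre near -14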
ugtP null kill – growth inhibition of ugtP-null S. aureus, primary screen, RN4220 ugtP deletion, OD600; 16 h; some inactives read as strong as hits; growth inhibition, % (concentration not given with the values); 0.54% of 330,000 active;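 active = z-score under -3 and OD600 up to 0.15 on both plates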;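 also: plate controls were untreated wells for no effect and antibiotic for full effect; wells of about 80 µL received 100 nL stock; the first replicate is given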
Mtb hypoxia inh growth – also measured in Mtb hypoxia inh; calls as there; growth inhibition, %; measured here: M. tuberculosis growth (absorbance);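 0% = vehicle and 100% = reference antibiotic; read after six days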
* marks the source's active call; other numbers are inactive results; ? = inconclusive; . = no result given.

SMILES	Mtb hypoxia inh	Mtb hypoxia inh growth	Bead autofluor	RN4220 kill	BJeLR lethal	PrP 5UTR inh	ugtP null kill
Cc1c(CCO)c(=O)n(-c2ccccc2)n1S(=O)(=O)c1ccc(F)cc1	17	10	3832	4.8	2	-1	8
CN(C)c1ccc(/C=C2\N=C(C(C)(C)C)OC2=O)cc1	-8	1	5527	1.4	-1	-32	12
CCN1C(=O)CSC1=Nc1ccc(Cl)c(Cl)c1	6	2	3241	0.9	5	0	0
CN(CC(=O)Nc1ccc(C(N)=O)cc1)S(=O)(=O)c1ccc2c(c1)OCCO2	-3	-1	4229	2.7	.	-4	7
O=C(O)C(CCc1ccccc1)(Cc1ccccc1)C(=O)O	-1	8	3853	-0.1	.	-2	-3
CCOC(=O)C1C2COc3ccc(OC)cc3C2N2C(=O)c3ccccc3NC(=O)[C@@]12C (stereo partly specified)	17	3	.	10	.	.	4
CCOC(=O)C1CCN(CC(=O)Nc2cc(C)nn2-c2nc3ccccc3s2)CC1	4	17	2449	4.6	-2	-11	-4
COc1ccc(/C=C/C(=O)c2ccncc2)c2ccccc12	-3	9	2665	7.9	1	-17	-12
Cc1ccc(S(=O)(=O)NCCC(=O)NCCSc2ccc(Br)cc2)cc1	11	-14	5687	5.5	-10	-12	11
O=C(Nc1ccc(Oc2cccnc2)cc1)C1CCCCN1Cc1ccc(CO)o1 (stereo unspecified)	1	3	4531	4.0	-4	-18	8
CC(NS(=O)(=O)c1ccccc1)c1n[nH]c(=S)n1-c1ccccc1 (stereo unspecified)	6	14	4348	3.1	-5	-32	16
Cc1nc2ccccc2c(=O)n1NC(=O)c1ccc([N+](=O)[O-])cc1Cl	-5	1	2606	11	2	-25	7
COC(=O)c1c(NC(=O)C2C3C=CC(CC3)C2C(=O)O)sc(C)c1C (stereo unspecified)	1	-2	2238	7.2	-3	-8	11
Nc1nc(N)nc(Cc2ccccc2O)n1	9	7	4101	3.7	.	-6	5
FC(F)(F)c1ccccc1NC1=NCCCS1	5	-3	5535	3.4	-9	-13	-1
O=C(CSc1nc(C2CCCCC2)n(-c2ccccc2)n1)NCC(F)(F)F	10	4	2088	2.5	0	-2	14
CCCCn1c(=O)[nH]c(=O)c2c1nc(-c1cc(Cl)c(OC)c(OC)c1)n2C	4	1	3974	2.6	-5	-19	12
O=C(CN1CCOCC1)Nc1ccccc1Sc1ccc(Cl)cc1	3	18	1938	6.4	-4	-24	-4
O=C(CN1C(=O)NC2(CCCCC2)C1=O)Oc1ccc2ccc(=O)oc2c1	-7	3	5278	-0.2	.	-27	2
CC(C)NC(=O)CC1Nc2c3ccccc3nc(=S)n2C1=O (stereo unspecified)	3	-2	9225	3.1	-10	-20	-2

Some of the entries above, set out differently:
CCN1C(=O)CSC1=Nc1ccc(Cl)c(Cl)c1
  Mtb hypoxia inh = 6 | Mtb hypoxia inh growth = 2 | Bead autofluor = 3241 | RN4220 kill = 0.9 | BJeLR lethal = 5 | PrP 5UTR inh = 0 | ugtP null kill = 0
CN(CC(=O)Nc1ccc(C(N)=O)cc1)S(=O)(=O)c1ccc2c(c1)OCCO2
  Mtb hypoxia inh = -3 | Mtb hypoxia inh growth = -1 | Bead autofluor = 4229 | RN4220 kill = 2.7 | BJeLR lethal = . | PrP 5UTR inh = -4 | ugtP null kill = 7

New compounds follow
SMILES	Mtb hypoxia inh	Mtb hypoxia inh growth	Bead autofluor	RN4220 kill	BJeLR lethal	PrP 5UTR inh	ugtP null kill
Cc1cc(C)cc(N2CCCn3c2nc2c3c(=O)n(CCN3CCOCC3)c(=O)n2C)c1	7	10	3275	7.5	1	-3	-5
O=C(Nc1ccc(Cl)c(Cl)c1)N1CCC(N2CCCCC2)CC1	9	6	?	-15	0	-20	-4
CC(C)[C@H](NC(=O)c1ccc(Cl)cc1)C(=O)OCC(=O)N1CCN(c2ccccc2)CC1	6	5	2996	-1.7	.	-19	15
O=C(CNC(=O)c1ccccc1F)NCC(c1cccs1)N1CCOCC1 (stereo unspecified)	4	3	3825	1.8	.	-15	0
CCOC(=O)c1cnc(SCC(=O)NCc2ccco2)nc1N	9	8	9801	5.2	10	-34	-7
CCOc1ccc(Br)cc1CSC(=N)N	8	8	1996	0.0	6	-10	8
CCCCC(OC(=O)c1cc2occc2n1C)C(=O)NCC1CCCO1 (stereo unspecified)	12	13	9504	5.7	-7	-13	5
COc1cc2nc(NC(=O)c3ccc(Cl)cc3)[nH]c(=O)c2cc1OC	.	.	4434	-0.9	-2	-22	-3
O=C(N/N=C/c1cn(CCOc2ccccc2)c2ccccc12)c1ccncc1	.	.	9410	.	-7	-13	.
NNc1nc2sc3c(c2c(=O)n1Cc1ccccc1)CCC3	7	-9	2797	2.3	7	-20	3
Cc1cc(C)cc(N(C(=O)c2cc3ccccc3oc2=O)C2C=CS(=O)(=O)C2)c1 (stereo unspecified)	13	0	2125	0.4	-17	-16	9
CCC1(c2ccc(Cl)cc2)NC(=O)N(CC(=O)NC2(C#N)CCCCC2)C1=O (stereo unspecified)	10	3	?	3.7	.	-6	2
CCOc1ccc(S(=O)(=O)NCc2ccccn2)c(C)c1C	-1	-1	4302	3.5	-5	-8	3
Cc1ccc(/C=C/c2ccc(=O)n(Cc3ccc(F)cc3)n2)cc1	2	-2	4640	3.1	4	-19	11
COc1cc2nc(CSc3ncn[nH]3)[nH]c(=O)c2cc1OC	-5	0	4656	-0.3	-8	-23	-3
O=[N+]([O-])c1ccc2c(c1)C(=NO)c1ccccc1-2	3	12	.	13	.	.	97*
COc1ccc(NC(=O)CSC2=C(C#N)C(c3ccco3)C(C(=O)Nc3nc4ccccc4s3)=C(C)N2)cc1 (stereo unspecified)	4	4	3220	15	8	-8	1
CC(=NNc1cccc(C(=O)O)c1)c1cc2ccccc2o1	-6	10	.	-4.3	.	.	5
COc1ccc(NC(=O)Cn2c(-c3ccccc3)cc(C(C)=O)c2C)c(OC)c1	-1	1	2090	1.0	-3	-19	0
CCOC(=O)c1sc(NC(=O)CSC(=S)N2CCN(C)CC2)nc1C	4	9	4213	2.1	-2	-1	4
CCCS(=O)(=O)N1CCCC(C(=O)N2CCC3(CC2)OCCO3)C1 (stereo unspecified)	-6	-11	2456	13	1	-14	4
O=C(NCCN1CCOCC1)c1cc2ccccc2[nH]1	7	7	3277	3.4	-7	-10	0
Cc1ccc(Cl)cc1N1CCN(C(=O)CCS(=O)(=O)c2cccc3nonc23)CC1	6	16	2085	8.0	-6	-2	7
CCCCc1ccc(S(=O)(=O)NCCCN2CCCC2=O)cc1	8	-17	6402	1.9	-5	-12	4
COc1cccc(OCCOc2cccc(C=Nn3cnnc3)c2)c1	7	0	.	0.9	.	.	-10
O=C(NCc1nnc(SCC(=O)N2CCOCC2)o1)c1ccccc1F	-4	5	2463	0.0	-11	-8	1
COc1cc(C=NN2CCOCC2)ccc1OCc1ccccc1	20	14	.	5.6	.	.	4
Cc1c(O)nc2sc3ccccc3n2c1=O	4	10	.	5.2	-23	.	4
CCn1c(CNC(=O)Cc2ccc(OC)cc2)n[nH]c1=S	4	-4	4349	-0.5	6	-18	-2
O=C1/C(=C/c2ccco2)SC(=S)N1C1CCS(=O)(=O)C1 (stereo unspecified)	11	18	4270	5.8	-5	-13	2
Cc1nnc(NC(=O)c2ccc(Br)o2)s1	19	5	4135	2.5	-13	-5	7
COc1ccc(C(C)=NNc2nc(C)c(C(C)=O)s2)cc1	-3	-1	.	3.3	.	.	-6
CN1C(=O)C(=O)/C(=C(/O)c2ccc(Br)cc2)C1c1ccc(Cl)cc1 (stereo unspecified)	-7	5	3429	2.1	2	-20	-4
Cc1c(C(=O)NCc2ccccn2)oc2c(Cl)cccc12	9	-2	4488	8.2	.	-4	13
O=C(NCc1ccco1)C(=O)NCC1OCCCN1S(=O)(=O)c1ccccc1 (stereo unspecified)	2	9	2642	1.4	3	-20	0
CCc1ccc(CN(C)C(=O)C2CCC(=O)N(Cc3ccccn3)C2)cc1 (stereo unspecified)	.	.	5659	.	2	-4	.
C/C(Cl)=C\Cn1c(O)c(N=O)c2ccccc21	9	6	3839	13	-1	-9	-9
CCOC(=O)Nc1ccc2c(COC(=O)c3ccccc3O)cc(=O)oc2c1	6	8	3627	0.0	11	-45	8
Fc1ccc(-c2nc3ccccn3c2NCc2ccc3c(c2)OCO3)cc1	12	10	3850	7.1	3	-6	8
COc1cccc(NC(=O)c2ccc(Cn3cc([N+](=O)[O-])cn3)o2)c1	6	-12	2560	4.5	2	-16	6
O=[N+]([O-])c1ccc(N2CCN(c3ccc(F)cc3)CC2)nc1	7	2	3879	3.4	-12	-20	3
O=C(/C=C/c1cccs1)NNC(=O)c1ccccc1	0	6	8435	2.2	.	-34	0
CSc1ccc(OC2CCCCC2NS(=O)(=O)c2ccccc2)cc1 (stereo unspecified)	3	5	2071	0.8	7	-15	-16
COc1ccc2nc(NC(=O)c3cccc(S(=O)(=O)N4CCOCC4)c3)sc2c1	.	.	3129	-1.5	7	-4	-10
CN(C)S(=O)(=O)c1ccc2nc(NC(=O)c3cccs3)sc2c1	-11	6	21214*	1.6	0	-59	-4
Cc1ccc(S(=O)(=O)N(CCC#N)C2CCCCC2)c2nsnc12	2	7	2568	4.1	-5	-7	1
CN=C1c2c(-c3ccccc3)c3cc(OC)ccc3n2CCN1C	.	.	2171	-5.9	-4	3	-7
CS(=O)(=O)c1ccccc1-c1nnc(NC(=O)c2ccco2)o1	0	0	.	3.8	-11	0	5
COc1cccc(NC(=O)CSc2nc(=O)n(CCN(C)C)c3c2CCCC3)c1	1	-3	9759	0.1	11	-20	8
CNC(=S)N1CCN(C(=O)c2ccco2)CC1	2	2	7947	6.4	3	-2	-1
COc1ccc(CNC(=O)CN(C(=O)c2csnn2)c2cnc3ccccc3c2)cc1	11	1	3875	1.0	-8	-19	4
CCOc1ccccc1C=NNC(=O)C(=O)NN=Cc1ccccc1OCC	8	3	3039	7.8	.	-16	5
CC(=O)N1CN(Cc2ccccn2)Cc2c1sc1c2CCCC1	5	-3	2650	2.1	3	-10	5
CCc1ccc(OCC(=O)c2c(O)c3ccccc3oc2=O)cc1	-3	1	3302	60	2	-26	70
CCN(CC)C(CNC(=O)CSc1nnnn1-c1c(C)cccc1C)c1ccco1 (stereo unspecified)	0	0	?	3.5	.	-9	2
Cc1ccc(NC(=O)CCC(=O)c2cccs2)cc1F	6	-3	3120	3.1	-4	10	4
COc1ccc(-n2ncc3c(NCc4cccnc4)ncnc32)cc1	-2	14	3657	1.6	2	-57	-2
O=[N+]([O-])c1ccccc1OCc1nc(-c2cccs2)no1	15	-1	4578	17	-5	-147	-69
O=C1CN(C(=O)COC(=O)c2c(F)cccc2Cl)c2ccccc2N1	30*	70*	4198	5.7	.	-12	2
Cc1ccc(COC(=O)c2cc([N+](=O)[O-])ccc2N2CCOCC2)cc1	.	.	6296	.	44	77*	.
Next part:
SMILES	Mtb hypoxia inh	Mtb hypoxia inh growth	Bead autofluor	RN4220 kill	BJeLR lethal	PrP 5UTR inh	ugtP null kill
CCOC(=O)c1cn2ccc(C)cc2n1	12	9	4702	6.4	10	-32	12
C=C(C)C1CCC(C)=C1COC(=O)Nc1ccccc1 (stereo unspecified)	.	.	2554	.	-4	-19	.
CC(C)Nc1cc(C(F)(F)F)nc(-c2ccccn2)n1	-4	5	20659*	0.4	-4	-20	-7
Cc1ccc(S(=O)(=O)N2CCCCC2CCNC(=O)C(=O)NCc2ccccc2C)cc1 (stereo unspecified)	8	-5	5749	0.4	3	-19	4
C/C(=N\NC(=O)c1nnn(-c2nonc2N)c1-c1ccc(Cl)c(Cl)c1)c1ccncc1	.	.	5869	.	6	-7	.
O=C(NNC(=S)NC(=O)c1cccnc1)c1ccccc1	0	20	9014	16	-4	2	-8

Full records from above. Screens in order: Mtb hypoxia inh	Mtb hypoxia inh growth	Bead autofluor	RN4220 kill	BJeLR lethal	PrP 5UTR inh	ugtP null kill
Profile of O=C(NNC(=S)NC(=O)c1cccnc1)c1ccccc1 → 0	20	9014	16	-4	2	-8
Profile of CC(C)Nc1cc(C(F)(F)F)nc(-c2ccccn2)n1 → -4	5	20659*	0.4	-4	-20	-7
Profile of CCOC(=O)c1cn2ccc(C)cc2n1 → 12	9	4702	6.4	10	-32	12
Profile of Cc1ccc(S(=O)(=O)N2CCCCC2CCNC(=O)C(=O)NCc2ccccc2C)cc1 (stereo unspecified) → 8	-5	5749	0.4	3	-19	4
Profile of C/C(=N\NC(=O)c1nnn(-c2nonc2N)c1-c1ccc(Cl)c(Cl)c1)c1ccncc1 → .	.	5869	.	6	-7	.

Screening data as filed in PubChem.
